Assay outcomes as filed in PubChem BioAssay.
Vif A3G: HIV-1 Vif–A3G interaction blockers – biochemical, TR-FRET, GST-Vif 1-94, biotin-A3G peptide, dose response retest, primary screen (AID 1117319). TR-FRET GST-Vif / biotin-A3G peptide binding; higher % means a stronger effect; test concentration not given here; strong numbers were not always called active. inhibition, %, or IC50 in µM where a hit was titrated. actives 0.57% (n = 260,000);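 active = above the screen mean plus three standard deviations and confirmed in dose response; inconclusive = results disagree or hit not tested in dose response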;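 note: Vif residues 1-94 fused to GST binding biotinylated APOBEC3G peptide 110-148; 0% = full assay without inhibitor and 100% = GST in place of GST-Vif; retest series ran down from 100 µM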
E coli growth: inhibitors of Escherichia coli growth; OD600, 23 h; hits give low values; OD600 absorbance (test concentration not listed); actives 0.21% (n = 330,000); AID 1053175;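 active = OD600 absorbance below the run mean of sample wells minus 3.6 SD, in any replicate, cut at about 0.56 in these data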;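 note: stock transfer was 300 nL into about 60 µL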
rRNA inh HTS: inhibitors of bacterial rRNA selective over humanized ribosomes; E. coli WT GFP vs humanized-ribosome RFP mutants, fluorescence, 24 h; hits give low values; DMSO median 0, no signal -100; GFP signal change (wild-type ribosome), % (concentration not given with the values); actives 1.6% (n = 350,000); AID 720706;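 active = significant combined selectivity score with lowered wild-type GFP, culture density cut under 30%, mutant RFP and density less affected; inactive = any of these conditions unmet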; note: one replicate is shown; some compounds called inactive have numbers as strong as hits
ALR inh: blocks human ALR sulfhydryl oxidase activity | purified ALR, DTT oxidation, H2O2 HRP-luminol luminescence | inhibition, % (no concentration beside the values) | actives 3.8% (n = 290,000) | AID 485317;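 active = mean and each replicate at 75% or more; inconclusive = only one of the two met; inactive = neither met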;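 note: stock transfer was 7.5 nL into about 7.5 µL; 0% = neutral wells and 100% = wells with inactivated enzyme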
Target sequence (P55789 whole entry, looked up): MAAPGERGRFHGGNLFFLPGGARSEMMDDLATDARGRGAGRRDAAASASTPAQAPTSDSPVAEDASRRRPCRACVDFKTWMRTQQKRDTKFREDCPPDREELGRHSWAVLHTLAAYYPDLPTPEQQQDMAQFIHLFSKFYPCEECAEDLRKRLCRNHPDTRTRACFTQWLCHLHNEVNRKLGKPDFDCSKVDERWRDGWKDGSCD
FGF22 binding: binders of recombinant human FGF22 by thermal shift | SYPRO orange fluorescence; percent of sucrose octasulfate shift, DMSO zero | Q9HCT0 | calls only at 9.99 µM | actives 1.5% (n = 340,000);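 active = melting point raised past a set limit in the mean and every replicate; inconclusive = no clear call; three in four hits are not shown here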
Target sequence (Q9HCT0 whole entry, looked up): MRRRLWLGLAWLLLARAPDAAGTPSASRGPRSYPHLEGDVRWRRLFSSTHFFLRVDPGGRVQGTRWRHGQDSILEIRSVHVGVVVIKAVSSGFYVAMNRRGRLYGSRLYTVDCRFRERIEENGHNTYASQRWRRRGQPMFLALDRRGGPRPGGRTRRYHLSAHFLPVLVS
AF4-AF9 inh: blocks AF4 peptide binding to human AF9; P42568; AlphaScreen, biotin-AF4 peptide binding to FLAG-AF9; inhibition, % at 10 µM; actives 0.47% (n = 350,000); AID 651704;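 active = every replicate reaching a set inhibition limit, whatever the replicate mean, cut at about 25% in these data; inconclusive = mean inhibition reaches that limit but some replicates miss it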;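 note: 0% = plate neutral control median and 100% = total signal loss; the record names both 10 and 1 µM as test concentration; the first replicate is given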
Target sequence (P42568 whole entry, looked up): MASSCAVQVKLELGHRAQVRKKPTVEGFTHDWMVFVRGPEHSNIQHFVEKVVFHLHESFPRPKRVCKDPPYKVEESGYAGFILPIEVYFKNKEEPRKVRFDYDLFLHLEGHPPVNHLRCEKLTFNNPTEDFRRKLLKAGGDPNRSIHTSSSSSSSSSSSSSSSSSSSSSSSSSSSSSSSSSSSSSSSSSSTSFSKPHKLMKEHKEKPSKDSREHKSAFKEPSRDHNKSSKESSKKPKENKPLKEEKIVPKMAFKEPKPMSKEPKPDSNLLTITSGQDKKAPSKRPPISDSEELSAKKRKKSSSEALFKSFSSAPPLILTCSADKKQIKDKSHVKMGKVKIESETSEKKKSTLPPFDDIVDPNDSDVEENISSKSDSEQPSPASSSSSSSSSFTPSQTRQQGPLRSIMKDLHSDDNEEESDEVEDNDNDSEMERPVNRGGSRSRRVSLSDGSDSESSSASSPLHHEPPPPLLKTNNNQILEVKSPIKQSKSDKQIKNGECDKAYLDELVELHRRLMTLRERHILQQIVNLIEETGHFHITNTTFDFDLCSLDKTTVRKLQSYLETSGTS
HNF4A DNA FP: change in binding of human HNF4 alpha to DNA. actives 0.3% (n = 360,000). HNF4a-FITC DNA binding, fluorescence polarization, 1 h. P41235. activity change, % at 10 µM; in the data active = activity change above about 30%, passing the limit was not always enough;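 note: controls were the assay level and a saturating level of protein; the project sought stronger binding though the title names inhibitors; some compounds called inactive have numbers as strong as hits; positive values seem to mean higher polarization but the record does not say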
rRNA inh HTS OD600: further read-out of rRNA inh HTS, marked with its call; OD600 change, %; measured here: OD600 growth;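 optical density of the mix in the first replicate; 0 = DMSO median and -100 = no signal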
rRNA inh HTS RFP: recorded beside rRNA inh HTS, whose call it bears; RFP signal change, %; measured here: RFP humanized mutant strains;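 first replicate; 0 = DMSO median and -100 = no signal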
Active calls of the source: *; i = inactive; ? = inconclusive; nt = not tested or not shown; & = joins results of further samples. A portion of the library; count on the stated rates, not on these rows.

cpd	SMILES	Vif A3G	E coli growth	rRNA inh HTS	rRNA inh HTS OD600	rRNA inh HTS RFP
1	N#Cc1cc(-c2ccccc2)nnc1Sc1ccc(F)cc1	-9.5%	0.734	nt	nt	nt
2	CSc1cccc(CN2CCCC(CO)(Cc3cccc(Cl)c3)C2)c1 (centres undefined)	2.6%	0.689	-17.1	-25.6	-3.1
3	COCCNC(=O)C(c1ccco1)N(Cc1ccc(OC)cc1)C(=O)Cn1nnc2ccccc21 (centres undefined)	-5.3%	0.731	nt	nt	nt
4	Cc1nn(-c2ccccc2)nc1C(=O)NN	7.8%	0.65	0.1	4.6	1.9
5	CCNc1nc(=S)nc(NC(C)C)[nH]1	nt	0.676	16.1	9.8	-3.4
6	CCCOC(=O)CSc1nc(N2CCOCC2)c2c(c1C#N)CC(C)(C)OC2	-8.1%	0.638	-3.2	4.8	1.5
7	COc1cc2c(C(=O)N3CCN(C)CC3)c(C)n(-c3ccccc3)c2cc1Br	?	0.69	nt	nt	nt
8	CC(C)CC#Cc1ccc2c(c1)O[C@H](CN(C)C(=O)Cc1ccncc1)[C@H](C)CN([C@H](C)CO)S2(=O)=O	10.9%	nt	-12.8&0.3	-10.7&0.1	17.3&2.9
9	CCOC(=O)N1CCC(NC(=O)Cn2ncc3c2-c2cc(C)ccc2OC3)CC1	-4.5%	0.772	0.3	2.1	-2.3
10	CN(C)CCNC(=O)C(=O)NCC1OCCN1S(=O)(=O)c1cc(F)ccc1F (centres undefined)	nt	0.723	8.4	6.7	-3.9
11	Cc1ccnc(NC(=O)COc2ccc(Cl)cc2)n1	2.2%	0.682	12.8	9.9	-6.1
12	CC(=O)N1[C@H](CNC(=O)CN(C)C)[C@H](c2ccc(C3=CCCCC3)cc2)[C@@H]1CO	nt	nt	-2.0	-4.1	1.6
13	CCOC(=O)c1ccc(S(=O)(=O)NC2CCC(C)CC2)cc1 (centres undefined)	nt	0.695	-52.0	-73.3	-14.8
14	C[C@@H]1CCCCO[C@H](CN(C)C(=O)CCCN(C)C)[C@H](C)CN([C@@H](C)CO)C(=O)c2cc(NC(=O)Cc3ccccc3)ccc2O1	nt	nt	4.1	4.9	-0.2
15	Nc1nc2c(Cl)ccc(Cl)c2s1	-4.5%	0.681	-11.2	-10.6	-1.4

cpd	ALR inh	FGF22 binding	AF4-AF9 inh	HNF4A DNA FP
1	-2.2	nt	nt	1.5
2	-8.4	i	-1.2	1.0
3	8.6	nt	nt	-1.5
4	6.9	i	nt	1.1
5	7.6	i	-1.8	-4.3
6	-6.7	i	-1.5	1.7
7	-4.8	nt	nt	7.1
8	nt	i	15.5&9.0&3.0	17.2
9	-0.1	i	-3.9	0.4
10	-0.7	i	7.1	2.3
11	-4.4	i	3.2	-2.9
12	nt	i	8.0	nt
13	-0.8	i	-4.1	0.4
14	nt	i	-1.6	nt
15	nt	i	-1.1	0.7

Compound profiles, as listed above:
Shown for COc1cc2c(C(=O)N3CCN(C)CC3)c(C)n(-c3ccccc3)c2cc1Br : Vif A3G = ?; E coli growth = 0.69; rRNA inh HTS = nt; rRNA inh HTS OD600 = nt; rRNA inh HTS RFP = nt; ALR inh = -4.8; FGF22 binding = nt; AF4-AF9 inh = nt; HNF4A DNA FP = 7.1
Shown for Cc1ccnc(NC(=O)COc2ccc(Cl)cc2)n1 : Vif A3G = 2.2%; E coli growth = 0.682; rRNA inh HTS = 12.8; rRNA inh HTS OD600 = 9.9; rRNA inh HTS RFP = -6.1; ALR inh = -4.4; FGF22 binding = i; AF4-AF9 inh = 3.2; HNF4A DNA FP = -2.9

(continued)
cpd	SMILES	Vif A3G	E coli growth	rRNA inh HTS	rRNA inh HTS OD600	rRNA inh HTS RFP
16	C[C@@H]1CN([C@@H](C)CO)S(=O)(=O)c2ccc(C3=CCCCC3)cc2O[C@H]1CN(C)C(=O)c1ccncc1	nt	nt	-4.3	-3.4	-5.4
17	COc1ccc(Cc2nnc(NC(=O)c3cccs3)s2)cc1OC	1.4%	0.731	7.6	4.5	-0.9
18	Cc1ccc(C(=O)CCC(=O)Nc2ccc(C)cn2)cc1	-9.9%	nt	4.9	11.4	-2.6
19	CC(C)OC(=O)CCC(=O)Nc1nc2ccccc2s1	?	0.678	-1.4	0.0	-1.5
20	COc1cccc(CN2[C@H](CO)[C@@H]3c4ccccc4N(C(=O)c4ccncc4)C[C@@H]32)c1	nt	nt	-4.0	2.8	-0.9
21	CO[C@@H]1CN(C)C(=O)c2ccc(NC(C)=O)cc2OC[C@H](C)N(C(=O)CC2CC2)C[C@H]1C	nt	nt	3.2	2.9	0.2
22	CC(C)=CC(=O)OCC(=O)Nc1ccc(F)cc1Cl	-5.3%	0.686	nt	nt	nt
23	C[C@@H]1CCCCO[C@H](CN(C)Cc2ccc(C(F)(F)F)cc2)[C@H](C)CN([C@H](C)CO)C(=O)c2cc(NC(=O)c3ccncc3)ccc2O1	nt	nt	-4.2	-38.3	32.8
24	O=C(CNC(=O)c1ccc(Br)o1)NCc1cccc(Cl)c1	nt	0.673	4.8	8.1	2.4
25	COC(=O)c1ccc(NC(=O)CS(=O)(=O)Cc2ccccc2)cc1	15.1%	0.722	nt	nt	nt
26	O=[N+]([O-])C(/C=C(\Cl)[N+](=O)[O-])=C(N1CCCCC1)N1CCCCC1	6.3%	nt	-53.8	-78.2	-10.1
27	COc1ccccc1C(=O)Nc1ccc(C(=O)N2CCCCC2)cc1	4.4%	0.65	-0.6	7.2	1.7
28	COc1cc2c(C(=O)N(C)c3cc(Cl)ccc3OC)cn(C)c(=O)c2cc1OC	-2.7%	0.677	6.9	5.6	-1.4
29	CCOC(=O)C1CCN(S(=O)(=O)c2nc3nc(C)cc(C)n3n2)CC1	-0.1%	0.742	nt	nt	nt
30	Cc1cccc(/C=C/C(=O)c2cc(Br)ccc(=O)c2O)c1	?	0.669	nt	nt	nt

cpd	ALR inh	FGF22 binding	AF4-AF9 inh	HNF4A DNA FP
16	nt	i	-1.0	nt
17	2.2	i	-1.0	0.8
18	nt	i	-2.2	1.2
19	-1.2	nt	nt	3.6
20	nt	i	1.0	nt
21	nt	i	-0.8	nt
22	10.8	nt	nt	0.3
23	nt	i	1.7	nt
24	1.0	i	0.7	-3.7
25	-3.5	nt	nt	12.6
26	-21.9	i	-0.8	-0.3
27	2.8	i	-1.6	-0.8
28	-5.9	i	0.4	-2.4
29	-15.1	nt	nt	-0.3
30	97.7*	nt	nt	1.9

A second format for some results above:
20) COc1cccc(CN2[C@H](CO)[C@@H]3c4ccccc4N(C(=O)c4ccncc4)C[C@@H]32)c1
  Vif A3G: nt; E coli growth: nt; rRNA inh HTS: -4.0; rRNA inh HTS OD600: 2.8; rRNA inh HTS RFP: -0.9; ALR inh: nt; FGF22 binding: i; AF4-AF9 inh: 1.0; HNF4A DNA FP: nt

21) CO[C@@H]1CN(C)C(=O)c2ccc(NC(C)=O)cc2OC[C@H](C)N(C(=O)CC2CC2)C[C@H]1C
  Vif A3G: nt; E coli growth: nt; rRNA inh HTS: 3.2; rRNA inh HTS OD600: 2.9; rRNA inh HTS RFP: 0.2; ALR inh: nt; FGF22 binding: i; AF4-AF9 inh: -0.8; HNF4A DNA FP: nt

(cont.)
cpd	SMILES	Vif A3G	E coli growth	rRNA inh HTS	rRNA inh HTS OD600	rRNA inh HTS RFP
31	CC(=O)c1c(C)[nH]c(C(=O)CSc2nnc(-c3ccccc3)o2)c1C	7.7%	0.685	nt	nt	nt
32	Cn1c(CSc2nc3ccccc3s2)nnc1SCC(=O)NCc1ccccn1	16.9%	0.7	nt	nt	nt
33	Cc1onc(-c2ccccc2)c1C(=O)NCC1CCN(C(=O)c2c(-c3ccccc3)noc2C)CC1	-4.8%	0.711	nt	nt	nt
34	CCN1CCN(Cc2ccc(NC(=O)c3cc(NC(=O)C4=NN(c5ccccc5)C(=O)C4)cc(OC)c3)cc2C(F)(F)F)CC1	-1.1%&3.2%	0.684	-11.6&9.9	2.1&3.6	66.2&3.5
35	CN(Cc1cnn(-c2ccc(F)cc2)c1)C(=O)[C@H]1O[C@@H](n2ccc(N)nc2=O)[C@H](O)[C@@H]1O	nt	nt	-4.2	-2.4	-1.8
36	CO[C@H]1CN(C)C(=O)c2ccc(NC(=O)C3CC3)cc2OC[C@H](C)N(C(=O)CN(C)C)C[C@@H]1C	nt	nt	1.6	6.9	-0.1
37	CC1=C(C)C(=O)C(N2CCOCC2)=CC1=O	10.5%	0.73	19.9	6.2	0.3
38	C[C@@H]1CN([C@@H](C)CO)C(=O)c2cccc(NC(=O)C3CC3)c2O[C@@H]1CN(C)C	nt	nt	5.3	6.2	-0.4
39	COc1cccc(N2CCN(CC(=O)Nc3ccnn3C3CCCC3)CC2)c1	-5.2%	0.658	nt	nt	nt
40	Oc1ccc(Cl)cc1/C=C/c1ccc2cccc(O)c2n1	11.4%	0.714	-61.5	-79.9	-24.0
41	Cc1ccc(Cn2nc(C)c(NC(=O)CCCn3nc(C)c([N+](=O)[O-])c3C)c2C)cc1	5.7%	0.721	nt	nt	nt
42	COc1ccc(C(CNC(=O)c2ccc(C)c(S(=O)(=O)N3CCCCC3)c2)N2CCCC2)cc1 (centres undefined)	nt	0.715	1.7	7.4	0.2
43	COc1ccc(NC(=O)N(C)C[C@H]2Oc3c(NS(=O)(=O)c4cccs4)cccc3C(=O)N([C@@H](C)CO)C[C@H]2C)cc1	nt	nt	-3.5	4.9	0.2
44	[O-][N+]12CCCCC1CCCC2CO (centres undefined)	6.0%	0.635	2.3	-0.4	-3.9
45	O=C(NCc1ccc(F)cc1)[C@H]1[C@H](CO)[C@H]2Cn3c(cccc3=O)[C@H]2N1C(=O)c1cccnc1	nt	nt	2.7	21.4	1.5
46	COc1ccc(-c2nc(C#N)c(NCc3ccccc3Cl)o2)cc1	-4.8%	0.726	nt	nt	nt
47	CCN1CCN(c2nc(-c3ccccc3Cl)nc3ccccc23)CC1	0.6%	0.682	8.2	9.9	1.1
48	CCOC(=O)NN1C(=O)c2ccccc2NC1c1ccccc1O (centres undefined)	nt	0.709	nt	nt	nt

cpd	ALR inh	FGF22 binding	AF4-AF9 inh	HNF4A DNA FP
31	7.0	nt	nt	-2.6
32	-13.4	nt	nt	3.8
33	4.2	nt	nt	0.6
34	-6.7	i	0.9&-14.9	-0.1&-0.3
35	nt	i	-1.9	-1.4
36	nt	i	-4.9	nt
37	nt	i	1.5	0.1
38	nt	i	-0.7	nt
39	nt	i	2.3	6.5
40	nt	i	13.7	4.3
41	-3.8	nt	nt	-4.9
42	nt	i	0.8	1.6
43	nt	i	1.4	nt
44	-6.5	i	-4.7	-1.5
45	nt	i	0.7	nt
46	-3.2	nt	nt	-1.2
47	-2.1	i	2.3	-0.6
48	10.0	nt	nt	-2.5

Structures above containing a nitro group on carbon, in the order listed:
cpd	SMILES	Vif A3G	E coli growth	rRNA inh HTS	rRNA inh HTS OD600	rRNA inh HTS RFP
26	O=[N+]([O-])C(/C=C(\Cl)[N+](=O)[O-])=C(N1CCCCC1)N1CCCCC1	6.3%	nt	-53.8	-78.2	-10.1
41	Cc1ccc(Cn2nc(C)c(NC(=O)CCCn3nc(C)c([N+](=O)[O-])c3C)c2C)cc1	5.7%	0.721	nt	nt	nt

cpd	ALR inh	FGF22 binding	AF4-AF9 inh	HNF4A DNA FP
26	-21.9	i	-0.8	-0.3
41	-3.8	nt	nt	-4.9
